ALR H2O2 inh – inhibitors of human ALR sulfhydryl oxidase, primary screen, biochemical, H2O2 detection, HRP-luminol luminescence, single point; hit rate 3.8% among 290,000; inhibition, % (concentration not given with the values); purified ALR, DTT oxidation; FAD-linked sulfhydryl oxidase ALR (Homo sapiens), P55789;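 active means mean and each replicate at 75% or more; inconclusive means only one of the two met; inactive means neither met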;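 further: stock transfer was 7.5 nL into about 7.5 µL; 0% = neutral wells and 100% = wells with inactivated enzyme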
Target sequence (P55789 whole entry, looked up): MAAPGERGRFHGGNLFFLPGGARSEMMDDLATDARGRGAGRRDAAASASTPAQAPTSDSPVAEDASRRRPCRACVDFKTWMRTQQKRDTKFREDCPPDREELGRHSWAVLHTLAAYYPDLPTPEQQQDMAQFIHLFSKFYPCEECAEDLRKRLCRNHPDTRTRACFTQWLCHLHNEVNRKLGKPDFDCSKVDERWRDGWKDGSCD
Calb FLC – C. albicans growth inhibition with fluconazole, primary screen, CaCi-2 strain, Alamar Blue fluorescence | growth inhibition, % (test concentration not listed) | AID 1979, 2009 | hit rate 0.57% among 300,000 | C. albicans CaCi-2 (fluconazole-resistant clinical isolate) + fluconazole, 48 h;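 active means most replicates above 75%; inconclusive means exactly half above 75%; inactive means most below 75%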;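 further: all wells also contain fluconazole at 8 µg/ml as a sub-toxic cotreatment; 0% = median of DMSO wells and 100% = median of geldanamycin control wells; wells of about 8 µL received 7.5 nL stock; the first replicate is given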
LANA-H2A inh – blockers of LANA interaction with H2A/H2B – biochemical, FP readout, HTS, primary screen | Protein LANA1 (Human herpesvirus 8 type P (isolate GK18)), Q9QR71 | cell-free LANA-H2A/H2B peptide, fluorescence polarization | hit rate 0.6% among 320,000 | AID 2629, 2010 | inhibition, % (concentration not given with the values); in the data active means inhibition mostly above about 10%, no sharp cut-off; inactive means mostly below about 6.7%;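 further: stock transfer was 7.5 nL into about 10 µL; 0% = median of vehicle wells and 100% = median of positive control wells; one replicate is shown; the record names a cut of 25% in any replicate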
HNF4A DNA FP – change in binding of human HNF4A to DNA, primary screen, biochemical, fluorescence polarization, FITC-DNA. Hepatocyte nuclear factor 4-alpha (Homo sapiens), P41235. 1 h. activity change, % at 10 µM. hit rate 0.3% among 360,000; in the data active means activity change above about 30%, passing the limit was not always enough;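 further: controls were the assay level and a saturating level of protein; the project sought stronger binding though the title names inhibitors; some compounds called inactive have numbers as strong as hits; positive values seem to mean higher polarization but the record does not say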
Target sequence (P41235 whole entry, looked up): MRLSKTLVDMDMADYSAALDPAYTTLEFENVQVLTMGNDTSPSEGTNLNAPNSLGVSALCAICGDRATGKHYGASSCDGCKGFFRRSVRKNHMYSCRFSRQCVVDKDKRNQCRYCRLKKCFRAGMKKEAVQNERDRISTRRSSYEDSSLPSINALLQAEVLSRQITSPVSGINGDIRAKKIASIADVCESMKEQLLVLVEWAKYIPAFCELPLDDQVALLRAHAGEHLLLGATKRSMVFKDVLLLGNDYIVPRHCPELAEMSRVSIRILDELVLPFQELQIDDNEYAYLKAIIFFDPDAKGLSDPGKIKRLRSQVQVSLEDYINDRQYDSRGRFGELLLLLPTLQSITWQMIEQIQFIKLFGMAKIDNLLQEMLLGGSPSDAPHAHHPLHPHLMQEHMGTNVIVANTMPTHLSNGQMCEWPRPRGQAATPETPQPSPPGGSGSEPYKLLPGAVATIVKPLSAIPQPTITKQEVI
Vif TR-FRET – inhibitors of Vif binding to APOBEC3G peptide, primary screen, biochemical, TR-FRET, GST-Vif 1-94, biotin-A3G peptide, dose response retest (AID 1117319) | Virion infectivity factor (Human immunodeficiency virus type 1 group M subtype B (isolate … | TR-FRET GST-Vif / biotin-A3G peptide binding; higher % means a stronger effect; test concentration not given here; strong numbers were not always called active | inhibition, %, or IC50 in µM where a hit was titrated | hit rate 0.57% among 260,000;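 active means above the screen mean plus three standard deviations and confirmed in dose response; inconclusive means results disagree or hit not tested in dose response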;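 further: Vif residues 1-94 fused to GST binding biotinylated APOBEC3G peptide 110-148; 0% = full assay without inhibitor and 100% = GST in place of GST-Vif; retest series ran down from 100 µM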
Beta2AR agonist – beta2AR agonists driving receptor internalization, primary screen, cell-based, FAP fluorogen, flow cytometry. AID 504454, 2011. response, % (no concentration beside the values). Am2.2-beta2AR cells; reference of the scale not given here. hit rate 0.43% among 340,000;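 active means response above a set limit, near 3 SD of response in nonfluorescent compounds, cut at about 42% in these data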;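 further: stock transfer was 100 nL into about 11 µL; a reference agonist was the positive control; negative values mostly stem from fluorescent compounds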
Target sequence (P07550 whole entry, looked up): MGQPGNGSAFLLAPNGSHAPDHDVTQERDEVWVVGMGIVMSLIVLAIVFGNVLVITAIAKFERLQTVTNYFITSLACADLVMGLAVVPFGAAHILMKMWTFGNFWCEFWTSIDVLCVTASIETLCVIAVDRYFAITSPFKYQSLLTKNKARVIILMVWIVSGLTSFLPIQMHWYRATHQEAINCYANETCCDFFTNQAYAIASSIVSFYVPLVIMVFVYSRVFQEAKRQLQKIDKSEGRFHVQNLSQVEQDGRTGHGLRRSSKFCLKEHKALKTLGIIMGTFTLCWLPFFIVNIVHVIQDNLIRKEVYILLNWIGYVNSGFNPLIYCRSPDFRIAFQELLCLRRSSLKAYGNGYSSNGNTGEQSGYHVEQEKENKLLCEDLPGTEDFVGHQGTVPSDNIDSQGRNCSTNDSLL
RanGTP-Imp inh – inhibitors of RanGTP-importin-beta interaction, primary screen, biochemical, FRET, CFP-Ran, YFP-importin-beta, homogeneous | hit rate 1.1% among 300,000 | inhibition, % (test concentration not listed) | Ran GTPase (GTP-bound) - importin-beta complex | cell-free CFP-Ran/YFP-importin-beta FRET ratio;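 active means most replicates above 15%; inconclusive means exactly half above 15%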;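 further: 0% = DMSO wells and 100% = Ran loaded with GDP instead of GTP; wells of about 40 µL received 100 nL stock; the first replicate is given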
* hit, by the source's call; ? = inconclusive; . = no result given; & = joins results of further samples.

SMILES	ALR H2O2 inh	Calb FLC	LANA-H2A inh	HNF4A DNA FP	Vif TR-FRET	Beta2AR agonist	RanGTP-Imp inh
Cc1ccc(S(=O)(=O)NNC(=O)Nc2ccccc2F)c(C)c1	42	-7	-1.6	-5.0	.	1	-2.1
Cc1cc(C)n(CCC(=O)N2c3ccccc3CC2C)n1 (configuration not stated)	-5	?	-4.5	0.1	.	0	?
O=C(Nc1ccc(S(=O)(=O)Nc2ncccn2)cc1)C1CC(=O)N(c2ccccc2)C1 (configuration not stated)	.	.	.	-0.9	-4%	9	.
O=C(CSc1nnc2c(Cl)cc(Cl)cn12)N1CCN(S(=O)(=O)c2ccccc2)CC1	.	19	5.1	-3.4	-4%	0	0.6
CCOC(=O)N1CCN(c2ccc([N+](=O)[O-])cc2)CC1	-1	-20	-5.9	1.1	1%	-4	3.7
Cc1ccc(SCCC(=O)N2CCC(C)CC2)cc1	.	40	0.8	0.6	7%	-7	-3.5
Cc1ccc(-c2csc(N(CCO)CCCn3c(C(F)(F)F)nc4cc(C(F)(F)F)ccc43)n2)cc1	-3	-9	-5.4	2.9	.	-2	-5.0
Cc1ccc(-n2c(=O)c(C#N)cc3c(=O)n4ccccc4nc32)cc1	-5	21	0.2	4.2	.	-3	44*
Cc1cc(C)n(C(=O)CCNC(=O)c2ccccc2Cl)n1	-3	-6	-0.4	-2.4	2%	4	1.4
COCCCn1c(=O)c2sccc2n(Cc2ccccc2C)c1=O	-13	10	0.1	-2.7	-3%	3	3.4
N#CCc1ccc(NC(=O)c2ccc(S(=O)(=O)N3CCOCC3)cc2)cc1	-3	5	0.0	-0.5	0%	4	-2.0
Cc1nc2ccc(NC(=O)c3ccc(S(=O)(=O)N4CCOCC4)cc3)cc2s1	-8	-5	0.5	-3.2	21%	12	1.6
Cn1c(=O)c2c(nc(CN3CCC(C(N)=O)CC3)n2CCCc2ccccc2)n(C)c1=O	-5	4	-3.5	-1.9	-5%	-2	?
O=S(=O)(N/N=C1\CCCc2ccccc21)c1ccccc1	17	.	14*	-1.7	6%	8	.
CCOC(=O)N1CCN(CC(=O)Nc2cc(OCC)ccc2OCC)CC1	-13	.	-1.4	-2.2	29%	-6	.
Cc1ccc([N+](=O)[O-])cc1S(=O)(=O)Nc1ccc(-c2ccc(N3CCCC3)nn2)cc1	.	9	.	-4.6	5%	7	-1.6
N#Cc1ccc(Oc2ccc(-c3cnc4ccccc4n3)cc2)cc1C#N	-13	5	-0.4	5.4	.	3	2.0
O=C(CCC(=O)OCc1ccc([N+](=O)[O-])cc1)Nc1ccc(F)cc1	-3	-6	-2.3	-1.0	-3%	-8	-0.9
O=C(/C=C/c1cccc(F)c1)NNC(=O)c1ccncc1	6	6	-2.4	-0.3	14%	-6	?
CC12CCC(=O)N1C(C(=O)N1CCN(c3ccccc3)CC1)CS2 (configuration not stated)	24	2	1.4	0.6	4%	-3	-0.2
CCc1ccc(C2(O)CC(C(F)(F)F)=NN2C(=O)Cc2ccc([N+](=O)[O-])cc2)cc1 (configuration not stated)	-5	-3	0.4	-3.4	3%	1	0.9
COCn1c(COc2ccccc2)nc2ccccc21	-1	12	3.1	-3.5	-3%	9	3.0
Cc1ccc(C(=O)NC=C(Cl)Cl)cc1	0	-16	0.8	-0.8	-1%	0	5.5
CCOC(=O)C(NC(=O)CC(C)C)(Nc1sc2c(c1C(N)=O)CCCC2)C(F)(F)F (configuration not stated)	47	-11	-0.8	-1.4	2%	-5	2.9
Cc1nn2cc(-c3cccc(Cl)c3)cnc2c1Br	-4	-37	.	2.9	-2%	-4	1.7
CC(=O)c1ccc(N2CCN(C(=O)C3CCCN(c4ncnc5c4nc4n5CCCCC4)C3)CC2)cc1 (configuration not stated)	-3	37	5.8	0.3	-1%	3	4.0
Cc1nn(C)cc1CNC(=O)C1C2CCC(C2)C1C(=O)O (configuration not stated)	4	1	-0.8	.	94%	.	-0.7
Cn1c(=O)c(C(=O)NNC(=O)c2ccccc2F)c(O)c2ccccc21	.	-14	-0.6	-3.5	.	-2	5.9
CCN1CCN(C(=O)C2CCN(Cc3nc(-c4cccc(Cl)c4)oc3C)CC2)CC1	-3	-7	-8.0	6.8	-2%&-10%	8	4.4
Cc1cc(C)c(NC(=O)CN(C)C(C)C(=O)N2CCc3ccccc32)c(C)c1 (configuration not stated)	-19	.	1.2	0.7	-2%	-2	.
O=C(CSc1nnnn1-c1cccc2ccccc12)NC(C(=O)O)(c1ccccc1)c1ccccc1	-16	15	-1.1	3.9	1%	6	5.7
CC(=O)c1ccc(N2Cc3ccccc3C2)cc1	-5	1	1.9	3.2	8%	20	1.8
Cc1ccc(Cn2ccnc2SCC(=O)NC2CCCC2)cc1	2	-7	1.6	1.9	.	12	?
Cc1ccc(SC2CCN(C(=O)C3CCC(=O)N(C4CC4)C3)CC2)cc1 (configuration not stated)	-35	-2	0.4	-2.5	.	-2	5.4
Clc1cccc(NCc2nnc(SCc3ccccc3Cl)o2)c1	-1	1	-7.2	2.6	2%	-10	2.5
Cc1ccc(NC(=O)Cc2noc3ccccc23)cc1	-3	-13	-1.4	-2.8	-5%	-6	-0.1
COc1ccc([C@@H]2[C@@H]3C(=O)N(C(C)(C)C)C(=O)[C@@H]3[C@]3(C)C(=O)N(c4ccccc4)C(=O)N23)cc1	-7	-7	2.5	16	.	9	7.3
CCn1c(SCC(=O)Nc2nc(-c3ccccc3)cs2)nc2c1c(=O)n(C)c(=O)n2C	-12	-2	4.3	0.7	-12%	2	-4.3
O=C(CN1CCN(C(=O)c2ccco2)CC1)Nc1ccc2c(c1)OCCO2	-2	0	-3.1	1.6	5%	-6	-1.2
COc1ccc2nc(Cl)c(C#N)cc2c1	-15	-14	-0.6	-0.3	.	-3	2.4
CCN1C(=O)C2(C(C#N)=C(N)Oc3n[nH]c(COC)c32)c2ccccc21 (configuration not stated)	-6	0	-4.4	2.6	-2%	7	3.7
CCN(CC)C(=O)c1[nH]cnc1C(=O)N[C@H](C)c1ccccc1	-5	.	3.1	-1.4	.	-1	.
O=C1C(=O)N(CCN2CCOCC2)C(c2ccccc2)/C1=C(\O)c1ccc2c(c1)OCCO2 (configuration not stated)	-3	0	3.3	1.9	.	3	1.2
CN(Cc1nccn1C)C(=O)c1cc(COc2ccc3ncccc3c2)on1	-113	-2	4.7	2.0	.	-5	4.1
O=C(COC(=O)C1CC2CCCC(C1)C2=O)NC(=O)c1ccccc1 (configuration not stated)	1	.	0.7	3.5	-10%	10	.
O=C(Nc1nnc(SCc2cccnc2)s1)C1CC(=O)N(c2ccc(F)cc2)C1 (configuration not stated)	97*	15	7.9	6.9	10%	-3	-3.4
O=C(CCC1CCCN(C(=O)Cc2ccc(F)cc2)C1)N1CCN(c2ccccn2)CC1 (configuration not stated)	8	-9	1.2	-0.1	6%	-7	-0.5
COc1cccc(N2CCN(C(=O)c3cccc(NC4=NC5CS(=O)(=O)CC5S4)c3)CC2)c1 (configuration not stated)	100*	-3	-0.2	-1.1	3%	3	-3.9
Cc1ccccc1-c1oc(C)c(C)[n+]1[O-]	-5	-4	-1.5	-0.2	15%	4	-0.1
O=C(CN1CCN(Cc2ccccc2)CC1)Nc1ccc(S(=O)(=O)N2CCOCC2)cc1	0	3	-0.8	2.7	5%	0	5.8
CCCN1CCN(CCCNC(=O)c2cc3c(=O)n(C)c4ccccc4c3n2C)CC1	-4	1	-3.8	-0.3	1%	-7	4.6
COc1ccc(/C=C/C(=O)OCC(=O)N(C)c2c(N)n(Cc3ccccc3)c(=O)[nH]c2=O)cc1OC	.	.	.	0.8	3%	-1	.
CC(=O)OCC1OC(n2ccc(=O)[nH]c2=O)C(O)C1O (configuration not stated)	-5	-12	-8.9	1.1	-4%	7	3.8
CC(C)NC(=O)Cn1c(SCC(=O)N2CCc3ccccc3C2)nc2ccccc21	-6	16	-1.6	-0.5	-1%	-9	1.7
Cc1ccc(OCC(=O)N2CCN(S(=O)(=O)c3ccccc3)CC2)c([N+](=O)[O-])n1	0	1	-1.2	-2.2	.	-29	1.5
Cc1ccccc1-c1nnc(SCc2ccccc2)o1	2	19	4.4	1.7	-5%	4	2.4
Cc1cc(=O)[nH]c(SCC(=O)Nc2nc3ccccc3s2)n1	99*	-15	-0.5	-3.7	-2%	4	0.9
COc1cc2c(cc1NC(=O)CN1CCN(S(=O)(=O)c3ccccc3F)CC1)oc1ccccc12	-10	2	0.2	0.7	-13%&2%	10	?
Cc1ccc2oc(=O)c3cc(C(=O)Nc4cc(-c5cccc(F)c5)no4)sc3c2c1	-5	5	-4.8	.	-3%	.	?
CC1CCCCC1NC(=O)CSc1nc2ccccc2[nH]1 (configuration not stated)	-7	-3	-1.5	1.4	.	2	-1.9
(next part)
SMILES	ALR H2O2 inh	Calb FLC	LANA-H2A inh	HNF4A DNA FP	Vif TR-FRET	Beta2AR agonist	RanGTP-Imp inh
O=C(Nc1cccc(S(=O)(=O)C(F)F)c1)c1ccc(S(=O)(=O)N2CCOCC2)cc1	0	-8	8.7	1.8	6%&-4%	12	?
Cc1sc2nc(CSCC(=O)Nc3ccc(OC(F)F)cc3)[nH]c(=O)c2c1C	97*	3	5.8	3.7	0%	8	2.0
COCCCNC(=O)c1ccc2c(c1)nc(C)n2-c1cccc(C)c1	0	0	-3.7	2.5	2%	-4	-1.6
O=C(NCCc1ccc(Cl)cc1)C1CCN(S(=O)(=O)c2ccc(-n3cnnn3)cc2)CC1	-4	11	4.1	-1.8	5%	-2	1.7
CCN(CC(=O)N1CCOCC1)S(=O)(=O)c1ccccc1	0	-3	-0.1	-0.4	.	-3	-5.4
CC1CCCC(NC(=O)COC(=O)c2cccc(NS(=O)(=O)/C=C/c3ccccc3)c2)C1C (configuration not stated)	14	-1	4.4	-1.8	-1%	-1	0.5
C/C(=N\NC(=O)CN1CCN(Cc2ccccc2)CC1)c1ccncc1	.	8	4.3	3.5	10%	-2	2.1
Cc1cc(C)c(N=C2CCCN2Cc2ccccc2)c(C#N)c1	7	-12	-2.6	1.3	-3%	3	-0.8
Cc1c(Cl)ccc2sc(NC(=O)C3CC3)nc12	-2	4	-6.6	2.4	.	3	?
CC(=O)c1cccc(NC(=O)CCn2c(=O)oc3ccccc32)c1	2	-8	0.4	0.2	.	5	11
C[C@H](NC(=O)Nc1cccc(C(F)(F)F)c1)C(=O)O	-2	4	-11	3.1	-1%	5	2.4
Nc1nnnn1/N=C\c1ccc(Cl)c([N+](=O)[O-])c1	.	5	1.5	0.1	-1%	14	-4.9
O=C(CN1C(=O)S/C(=C\C=C\c2ccccc2)C1=O)N1CCCCC1	-3	-6	-5.9	-1.6	.	-1	0.3
O=C(COC(=O)c1cc(-c2ccc(F)cc2)nc2ccccc12)NCC1CCCO1 (configuration not stated)	-11	-13	2.7	-1.6	6%	0	-2.9

Single records, from the list above. Screens in order: ALR H2O2 inh | Calb FLC | LANA-H2A inh | HNF4A DNA FP | Vif TR-FRET | Beta2AR agonist | RanGTP-Imp inh
CCN(CC(=O)N1CCOCC1)S(=O)(=O)c1ccccc1 is listed with 0 | -3 | -0.1 | -0.4 | . | -3 | -5.4
O=C(CN1C(=O)S/C(=C\C=C\c2ccccc2)C1=O)N1CCCCC1 is listed with -3 | -6 | -5.9 | -1.6 | . | -1 | 0.3

Assay outcomes from PubChem.
